# CDC25B-CDK2 inh: primary biochemical HTRF screen for blockers of M-phase inducer phosphatase 2 binding to CDK2/cyclin A. z-score (test concentration not listed). actives 0.72% (n = 94,000). HTRF CDC25B-CDK2/CyclinA binding, anti-His/anti-Flag; active compounds read high. P30305+P24941;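 further: score is relative to mean and SD of negative controls; strong numbers were not always called active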
# HIV TAR-Tat: TAR RNA-Tat peptide displacers, HIV-1, primary screen, biochemical, FRET, FAM/TAMRA-labeled Tat | AID 1259389, 2018 | actives 0.6% (n = 100,000) | z-score (test concentration not listed) | HIV-1 TAR RNA, Tat peptide displacement FRET; active compounds read high;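 further: score is relative to mean and SD of negative controls; some compounds called inactive have numbers as strong as hits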
# Starred values were filed as active, the others as inactive; . = no result given.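 How the source made its calls: active means z-score from 3 up in half or more of its runs; inactive means the rest.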
# Sample of the layout:
SMILES,CDC25B-CDK2 inh,HIV TAR-Tat
CCC(CC)N1CCN(Cc2ccc3c(c2)OCO3)CC1,0.51,.
O=c1oc(-c2ccc(F)cc2)nc2ccccc12,0.13,.
COc1cc([C@@H]2c3cc4c(cc3[C@H](OC(C)=O)[C@H]3COC(=O)[C@H]23)OCO4)cc(OC)c1OC,.,1.8
CN1C(=O)N(C)C(=O)C(CCc2ccncc2)(CCc2ccncc2)C1=O,1.5,0.58
O=C(Nc1ccccc1)N1Cc2ccccc2-n2cccc2C1c1ccc(F)cc1 (stereo not given),.,0.05

# The whole of this part (from the top)
SMILES,CDC25B-CDK2 inh,HIV TAR-Tat
CCC(CC)N1CCN(Cc2ccc3c(c2)OCO3)CC1,0.51,.
O=c1oc(-c2ccc(F)cc2)nc2ccccc12,0.13,.
COc1cc([C@@H]2c3cc4c(cc3[C@H](OC(C)=O)[C@H]3COC(=O)[C@H]23)OCO4)cc(OC)c1OC,.,1.8
CN1C(=O)N(C)C(=O)C(CCc2ccncc2)(CCc2ccncc2)C1=O,1.5,0.58
O=C(Nc1ccccc1)N1Cc2ccccc2-n2cccc2C1c1ccc(F)cc1 (stereo not given),.,0.05
Cc1cc(C(=O)N2CCC3(CC2)OCCO3)no1,-0.69,.
Cc1ccc(CN2CCCN(Cc3cccc(F)c3)S2(=O)=O)cc1,.,0.14
Cc1cc(C)nc(-n2nc(-c3ccccc3)c3c2NC(=O)CSC3c2ccccc2C)n1 (stereo not given),1.9,0.82
CCC(C)n1[nH]c(=O)c2c1NC(=O)CSC2c1ccc2c(c1)OCO2 (stereo not given),0.58,-1.7
CC(=O)OCC1=C[C@H]2[C@@H]3C(C)(C)[C@]3(OC(=O)Cc3ccccc3)C[C@@H](C)[C@]2(O)[C@@H]2C=C(C)C(=O)[C@@]2(O)C1,.,2.5
Cc1nc2cc(Cl)ccc2c(=O)n1-c1ccc(Cl)cc1,-0.59,.
O=C(NCc1ccccc1)N1Cc2ccccc2-n2cccc2C1c1ccc(F)cc1 (stereo not given),.,-0.1
C[C@@H]1O[C@@H](O[C@H]2CC[C@]3(C=O)C4CC[C@]5(C)[C@@H](C6=CC(=O)OC6)CC[C@]5(O)C4CC[C@]3(O)C2)[C@H](O)[C@H](O)[C@H]1O (stereo not given in full),.,-0.23
CCC1c2cccn2-c2ccccc2CN1C(=O)Nc1ccccc1Cl (stereo not given),.,1.6
O=c1c2ccccc2nc(/C=C/c2ccc(O)cc2)n1-c1ccc(O)cc1,-1.3,0.64
O=C1CC(C(=O)c2cccs2)CO1 (stereo not given),-0.77,.
O=[N+]([O-])/C=C/c1ccc(OCc2ccccc2)cc1,-0.74,.
COc1ccccc1N1CCN(Cc2ccc(C)cc2)CC1,-0.85,.
O=c1c2ccccc2nc(-c2cccnc2)n1-c1ccc(Br)cc1,-0.86,1.2
CC(C)Cc1ccc(C(C)C2=NCCN2)cc1 (stereo not given),0.28,-0.9
CCCCC1N2CC3(C)CN1CC(C)(C2)C3=O (stereo not given),0.75,.
CN1CC=C(c2noc(CCC(=O)N3CCN(c4ccc(F)cc4)CC3)n2)CC1,-0.92,-0.4
Cc1cc(Br)ccc1-n1c(=S)[nH]c2ccccc2c1=O,-3.1,.
CC(=O)N1N=C(c2cccnc2)OC1(C)C,-0.35,.
CCC(C)n1[nH]c(=O)c2c1NC(=O)CSC2c1ccc(C)cc1 (stereo not given),-2.3,0.68
# Following part:
SMILES,CDC25B-CDK2 inh,HIV TAR-Tat
c1ccc2c(c1)ccc1c3ccc4ccccc4c3[nH]c21,-0.77,.
Cc1cc(C)nc(-n2nc(C)c3c2NC(=O)CSC3c2ccc(F)cc2F)n1 (stereo not given),-1.3,-1.4
CC(C)=CCCC1=CC(=O)c2c(O)ccc(O)c2C1=O,.,34*
COc1ccc(NC(=O)N2Cc3ccccc3-n3cccc3C2c2cccs2)c(OC)c1 (stereo not given),.,1.8
O=C(CCCN1CCC2(CC1)C(=O)NCN2c1ccccc1)c1ccc(F)cc1,-1.4,1.8
COc1ccc2nc(NC(=O)CN3CC4CC(C3)c3cccc(=O)n3C4)sc2c1 (stereo not given),.,-0.61
COc1cccc(C(c2c(O)c3ccccc3oc2=O)c2c(O)c3ccccc3oc2=O)c1,-0.11,.
COc1ccc(C2N3CC(C)(C)CN23)cc1 (stereo not given),0.5,2.3
Cc1cc(C)nc(-n2nc(C)c3c2NC(=O)CSC3c2ccccc2)n1 (stereo not given),-1.8,-0.6
CC(=O)NCCN1C(C)N1CCNC(C)=O (stereo not given),-3.5,.
CC1(C)CC(=O)C2=C(C1)OC(N)=C(C(=O)OC(C)(C)C)C21C(=O)Nc2ccc(Br)cc21 (stereo not given),-0.97,.
CCOC(=O)CSC1c2ccccc2Nc2c1cnc(Cl)c2C#N (stereo not given),-3.8,.
Cc1nn2cc(C#N)c(N)nc2c1-c1ccccc1,-1.8,1.4
CC[n+]1c(-c2ccccc2)c2cc(N)ccc2c2ccc(N)cc21,.,-8.8
Oc1ccc(Cl)cc1,.,0.42
CC1=CC(=O)C2=C(C)C[C@H](O)[C@H]3[C@H](C)C(=O)O[C@@H]3C12 (stereo not given in full),.,2.2
C=C[C@H]1CN2CCC1C[C@@H]2C(O)c1ccnc2ccccc12 (stereo not given in full),.,1.8
c1ccc(CN2CCN(C3CCCCC3)CC2)cc1,-0.99,0.7
CC(=O)c1c(O)c(C)c(O)c2c1oc1c(C(C)=O)c(O)c(C)c(O)c12,.,0.28
COc1ccc(/C=C/c2cc(O)cc(O)c2)cc1,.,0.62
CCc1cccc(CC)c1N(COC)C(=O)CCl,.,-0.69
Cc1cc(C)nc(-n2nc(C)c3c2NC(=O)CSC3c2ccc(OCc3ccc(F)cc3)cc2)n1 (stereo not given),0.23,-0.54
C[C@H]1CCCC(=O)CCC/C=C/c2cc(O)cc(O)c2C(=O)O1,.,1.7
O=C(O)CCC1NCC2CC1CN1CCCCC21 (stereo not given),.,3
Clc1cc(Br)ccc1NC1=NCCS1,-1.6,.
# Remaining list, next part
SMILES,CDC25B-CDK2 inh,HIV TAR-Tat
CN1CCC(OC(=O)C2c3ccccc3Oc3ccccc32)CC1,1.2,.
COC(=O)[C@]1(C)CC[C@]2(C)CC[C@]3(C)C4=CCc5c(cc(O)c(O)c5C)[C@]4(C)CC[C@@]3(C)C2C1 (stereo not given in full),.,0.67
c1cncc(C2=NCCO2)c1,-1.6,.
COc1ccc(OC)c(NC(=O)N2Cc3ccccc3-n3cccc3C2c2cc(F)cc(F)c2)c1 (stereo not given),.,1.1
C=CCN1C(=O)C2(C(C#N)=C(N)OC(CC(=O)OCC)=C2C(=O)OCC)c2ccccc21 (stereo not given),0.53,.
C=CCSc1nc2ccccc2c(=O)n1-c1ccc(OC)cc1,0.63,.
O=[N+]([O-])c1ccc2nc(N3CCNCC3)ccc2c1,-0.9,.
C=C1[C@@H](C)[C@H]2[C@H](Cc3ccccc3)NC(=O)[C@]23[C@@H](OC(C)=O)/C=C/[C@@](C)(O)C(=O)[C@@H](C)C/C=C/[C@H]3[C@@H]1O,.,1.4
Brc1ccc(CN2CCN(Cc3ccc4c(c3)OCO4)CC2)cc1,0.47,.
COc1cccc(C2C(C#N)=C(N)Oc3c2c(=O)oc2ccccc32)c1OC (stereo not given),-3.4,.
CN(C)c1ccc(C2c3cccn3-c3ccccc3CN2C(=O)Nc2ccccc2F)cc1 (stereo not given),.,0.63
Cc1cc(OC(=O)c2cccs2)c2c3c(c(=O)oc2c1)CCC3,-2.7,.
O=c1oc2ccccc2c(O)c1C1c2ccccc2Nc2c1c(=O)oc1ccccc21 (stereo not given),-2.2,.
OC(Cc1ccccc1)(c1ccccc1)C1CN2CCC1CC2 (stereo not given),-2,2.3
CC(C)C12CN3CC(C(C)C)(CN(C1)C3c1cccnc1)C2=O (stereo not given),0.65,0.06
O=S1(=O)N(Cc2ccccc2)CCCN1Cc1ccc(F)cc1Cl,.,-0.36
COc1cc(OC)c(NC(=O)N2Cc3ccccc3-n3cccc3C2C)cc1Cl (stereo not given),.,-0.25
Cc1ccc(Cn2nc(C(=O)Nc3ccccc3)cc2C)cc1,-0.05,.
CC(=O)OC12CCC(=O)C=C1CCC1C3CCC(=O)C3(C)CCC12 (stereo not given),-0.93,.
CC(C)(O)[C@@H]1[C@H]2OC(=O)[C@@H]1[C@]1(O)C[C@H]3O[C@]34C(=O)O[C@H]2[C@]14C,.,3.4
O=C1C(c2ccccc2)C(=O)N(c2ccccc2)C(=O)N1c1ccccc1,-2,.
CCC(C)N1CCN(Cc2ccc(Cl)cc2)CC1 (stereo not given),-0.13,2.2
C/C=C1/C[C@@H](C)[C@@](C)(O)C(=O)OCC2=CCN3CC[C@@H](OC1=O)[C@@H]23,.,-0.35
CCOC(=O)C1C(=O)NC2(C)Oc3ccccc3C1C2C (stereo not given),-2.4,.
CN(C)C(=O)Oc1ccc2c(=O)c(Oc3ccccc3Br)coc2c1,-2,0.05
# (cont.)
SMILES,CDC25B-CDK2 inh,HIV TAR-Tat
CC1CCC/C=C/C2CC(O)CC2C(O)/C=C/C(=O)O1 (stereo not given),-2.6,.
O=c1c2ccccc2nnn1C1CCNCC1,.,0.45
COc1ccc(C(c2ccc(OC)cc2)C(Cl)(Cl)Cl)cc1,.,1.6
CCCCCOc1ccc(C(=O)c2cccc3ccccc23)c2ccccc12,.,1.5
c1cncc(C2NCCc3c2[nH]c2ccccc32)c1 (stereo not given),-0.56,-0.15
CS(=O)(=O)Nc1ccc(Cc2noc(-c3ccc4[nH]cc(CCN)c4c3)n2)cc1,.,-0.87
Cc1[nH]nc2c1C(c1ccccc1Cl)SCC(=O)N2 (stereo not given),-1,0.77
CC(C)NC(=O)N1Cc2ccccc2-n2cccc2C1c1ccccc1Cl (stereo not given),.,0.13
O=C(CCn1c(=O)oc2ccccc21)N1CCC2(CC1)OCCO2,-1.8,.
COc1ccc(CN2CCNCC2CCO)c(C)c1C (stereo not given),-0.86,0.66
C/C=C1/C[C@@H](C)[C@](O)(CO)C(=O)OCC2=CCN3CC[C@@H](OC1=O)[C@@H]23,.,0.1
NCC1(CC(=O)O)CCCCC1,-0.8,.
CN(C(=O)Oc1cccc2cccnc12)c1ccccc1,-1.4,-9.2
COc1ccc(C2SCC(=O)Nc3n[nH]c(C)c32)c(OC)c1 (stereo not given),0.18,1.7
CC[C@H]1CN2CCc3cc(OC)c(OC)cc3[C@@H]2C[C@@H]1C[C@H]1NCCc2cc(O)c(OC)cc21,.,-0.35
CCC(C)n1[nH]c(=O)c2c1NC(=O)CSC2c1ccc(Cl)cc1 (stereo not given),0.3,-0.85
CC(=O)OC1CCC2C3C=CC4=CC(=O)C=CC4(C)C3CCC12C (stereo not given),-0.66,.
CCc1ccc(CNCCc2ccc3c(c2)OCO3)cc1,-2,-0.5
O=c1oc2ccccc2c(O)c1C(c1ccccc1Br)c1c(O)c2ccccc2oc1=O,-2,.
Nc1ccncc1Br,-1.3,.
CCC(C)n1[nH]c(=O)c2c1NC(=O)CSC2c1ccc(OC)c(OC)c1 (stereo not given),-1.2,2.7
O=C1C2CCCN2C(c2cccnc2)N1c1cccc(Cl)c1 (stereo not given),-1.8,-0.29
C#CC1(O)CCC2C3CCC4=CC(=O)CCC4(C)C3CCC21C (stereo not given),.,0.75
Cc1c([C@@H](C)C2NC[C@@H](C)C[C@H]2O)ccc2c1C[C@@H]1[C@H]2CC=C2C[C@@H](O)CC[C@@]21C (stereo not given in full),.,-0.34
Cn1c(C=C(C#N)C#N)ccc1S(C)(=O)=O,-1.9,.

# Some of the entries above, set out differently.
# Sequence of screens – CDC25B-CDK2 inh	HIV TAR-Tat
CC(=O)OC1CCC2C3C=CC4=CC(=O)C=CC4(C)C3CCC12C (stereo not given)
 : -0.66	.
Nc1ccncc1Br
 : -1.3	.

# Record cards, as listed above.
# Profile of O=c1c2ccccc2nnn1C1CCNCC1 → CDC25B-CDK2 inh = .; HIV TAR-Tat = 0.45
# Profile of CS(=O)(=O)Nc1ccc(Cc2noc(-c3ccc4[nH]cc(CCN)c4c3)n2)cc1 → CDC25B-CDK2 inh = .; HIV TAR-Tat = -0.87

# The list goes on:
SMILES,CDC25B-CDK2 inh,HIV TAR-Tat
O=C(c1cccc2ccccc12)c1cn(CCCCCF)c2ccccc12,.,1.4
COc1cccc(CN2CCN(Cc3cc(Br)ccc3O)CC2)c1,16*,0.7
COc1ccc(C2c3cccn3-c3ccccc3CN2C(=O)NC2CCCC2)cc1 (stereo not given),.,0.1
COc1cccc(OC)c1C1=NCC(=O)Nc2c1oc1ccc(Br)cc21,0.91,.
CC[C@@]1(O)C(=O)OCc2c1cc1n(c2=O)Cc2cc3c(O)cccc3nc2-1,.,-10
O=C1CC(=O)N(c2cccc(F)c2)C(=O)N1,0.7,-0.5
C[C@H]1C/C=C/[C@H]2[C@@H]3O[C@]3(C)[C@@H](C)[C@H]3[C@H](Cc4ccccc4)NC(=O)[C@]32OC(=O)O/C=C/[C@@](C)(O)C1=O,.,1.6
C[C@]12CC(=CO)C(=O)C[C@@H]1CC[C@@H]1[C@@H]2CC[C@@]2(C)[C@H]1CC[C@]2(C)O,.,1.5
CCOc1c(N2CCN(CC)CC2)c(=O)c1=O,.,0.34
CC1(C)CC(CCNCc2ccc3c(c2)OCO3)(Cc2ccccc2)CCO1 (stereo not given),1.4,-0.16
CN1CCC(N(C)c2nc(-c3ccccc3)nc3ccccc23)CC1,-0.95,-0.68
CCCCOc1ccc(C2SCC(=O)Nc3n[nH]c(C)c32)cc1 (stereo not given),-2.3,1.8
CC1CN(C(=O)COc2ccccc2OC(=O)N(C)C)CC(C)O1 (stereo not given),-0.59,.
Cc1[nH]nc2c1C(c1cc(F)cc(F)c1)SCC(=O)N2 (stereo not given),-1.3,1.5
O=c1oc2ccccc2c(O)c1C(c1ccccc1F)c1c(O)c2ccccc2oc1=O,-2.3,.
CC(=O)N1CCC2(CC1)CC(=O)c1cc(OCC(=O)N3CCN(C)CC3)ccc1O2,1.8,.

# A portion of the library. The share of hits here may be higher or lower than overall.
